KCNQ2 pot – potentiators of rat KCNQ2 potassium channel. Potassium voltage-gated channel subfamily KQT member 2 (Rattus norvegicus), O88943. CHO-K1 KCNQ2, FluxOR thallium flux fluorescence; active compounds read high. B-score at 10 µM. 0.54% of 310,000 active;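 active = fluorescence ratio B-score at least 3 SD of library B-scores, with initial fluorescence B-score within 3 SD, cut at about 5.3 in these data; same plate scores as AID 2156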;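 also: B-score of peak minus minimum over baseline fluorescence ratio after K+ and Tl+ stimulus; positive B-score means potentiation of KCNQ2 with more thallium influx and brighter signal; only the inactives scoring about 0 or higher are listed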
Target sequence (O88943 whole entry, looked up): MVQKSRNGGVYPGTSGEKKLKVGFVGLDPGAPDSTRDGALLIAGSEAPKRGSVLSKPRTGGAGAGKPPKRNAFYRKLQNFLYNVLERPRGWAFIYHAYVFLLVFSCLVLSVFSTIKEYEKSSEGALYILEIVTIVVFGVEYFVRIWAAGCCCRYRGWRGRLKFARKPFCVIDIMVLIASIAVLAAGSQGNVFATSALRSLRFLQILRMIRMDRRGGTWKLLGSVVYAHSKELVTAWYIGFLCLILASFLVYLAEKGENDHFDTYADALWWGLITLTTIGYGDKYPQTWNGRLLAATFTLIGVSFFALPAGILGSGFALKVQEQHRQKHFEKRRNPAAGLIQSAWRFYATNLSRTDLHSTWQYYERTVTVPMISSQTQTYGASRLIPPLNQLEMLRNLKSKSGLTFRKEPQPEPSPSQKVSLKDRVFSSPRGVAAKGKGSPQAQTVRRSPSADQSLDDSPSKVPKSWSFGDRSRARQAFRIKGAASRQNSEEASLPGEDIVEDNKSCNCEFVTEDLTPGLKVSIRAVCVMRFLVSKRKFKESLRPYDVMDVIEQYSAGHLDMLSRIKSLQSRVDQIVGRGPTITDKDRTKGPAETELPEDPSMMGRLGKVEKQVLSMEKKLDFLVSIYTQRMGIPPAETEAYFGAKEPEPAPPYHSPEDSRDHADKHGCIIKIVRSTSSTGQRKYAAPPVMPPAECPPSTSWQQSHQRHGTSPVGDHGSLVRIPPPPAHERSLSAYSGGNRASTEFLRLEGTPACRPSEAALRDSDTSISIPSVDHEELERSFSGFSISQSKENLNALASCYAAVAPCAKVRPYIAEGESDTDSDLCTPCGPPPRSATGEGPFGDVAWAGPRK
KCNQ2 pot baseline – further read-out of KCNQ2 pot, marked with its call; B-score; compound at 10 µM; measured here: initial fluorescence intensity artifact check;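 brightness before thallium and not channel activity; 0 = typical well and far values either way flag optical interference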
The depositor's hits bear a star. This is a subset; the hit share may differ from the screen's.

SMILES	KCNQ2 pot	KCNQ2 pot baseline
Cc1cccc(Nc2c([N+](=O)[O-])ccc3nonc23)c1	1.4	-0.03
CCN(CC)S(=O)(=O)c1ccc(NC(=O)CCNC(=O)c2ccco2)cc1	1.03	0.23
C/C(=N\NC(=O)c1ccco1)c1ccc(NC(=O)C(F)(F)F)cc1	0.92	0.35
CCNC(=S)Nc1cc(OC)c(NC(=O)c2ccco2)cc1OC	1.02	0.62
COc1ccc(N2CC(O)=C(c3nc(-c4ccc(F)cc4)cs3)C2=N)cc1	0.1	0.16
CC1(c2cc(C(F)(F)F)n3nc(C(=O)O)cc3n2)CC1	0.96	-0.48
COc1ccc(CC(=O)Nc2ccc(S(=O)(=O)Nc3ncccn3)cc2)cc1OC	0.04	0.72
COC(=O)c1ccccc1SCC(=O)Nc1ccc(N2CCOCC2)cc1	2.13	0.35
CCc1ccc(C(=O)/C=C/c2cnn(C)c2C)s1	0.35	1.93
CCC(C)(C)C1CCC2(CC1)NC(CO)(CO)CO2 (configuration not stated)	1.03	1.07
CC(C)OCCCNc1ncnc2c1cnn2-c1ccccc1	2.09	-0.64
Cc1cccn2c(=O)c(/C=C(\C#N)S(=O)(=O)c3ccccc3)c(Oc3ccc(Cl)cc3)nc12	1.67	0.62
Cc1ccc2c(=O)cc(C(=O)NCCc3ccc(S(N)(=O)=O)cc3)oc2c1	1.47	0.24
Cc1[nH]c2ccccc2c1-c1nc2ccccc2[nH]c1=O	1.4	-0.17
Cc1ccccc1NC(=O)CSc1nnc(C2CC2)n1CC1CCCO1 (configuration not stated)	2.01	1.05
COc1ccc(S(=O)(=O)NCCCN2CCCC2=O)c(OC)c1	0.65	0.52
Cc1ccc2oc(C(=O)N(C)Cc3cnccn3)c(C)c2c1	0.04	0.1
COc1ccc(OCC(O)CN(C)C(=O)C(C)Oc2ccccc2)cc1 (configuration not stated)	0.01	1.71
CN(C(=O)N1CCN(c2ccccn2)CC1)c1ccccc1	0.56	0.04
O=C(NCc1cccnc1)NC1CCCN1S(=O)(=O)c1ccc(Cl)cc1 (configuration not stated)	0.72	0.4
COC(=O)c1ccc(Cn2nc(-c3ccc(C)cc3)ccc2=O)cc1	0.01	0.01
CCOc1cc(/C=N/NC(N)=O)cc(Br)c1OCc1ccccc1	0.22	1.56
CCOc1ccccc1NC(=O)Cn1nnc(C(=O)NCc2ccc3c(c2)OCO3)c1N	0.03	0.66
COc1ccccc1NC(=O)c1ccc(NS(=O)(=O)c2ccc(F)c(Cl)c2)cc1	2.87	-0.07
O=C1CCCc2oc3ccc(O)cc3c21	0.38	1.43
CCc1noc(C)c1C(=O)Nc1cc(S(=O)(=O)N2CCOCC2)ccc1N1CCN(CC)CC1	0.95	1.19
CCOc1ccccc1NC(=O)Nc1ccc2c(c1)OCO2	0.85	0.83
Cc1cc(C)nc(N2CCCC(C(=O)Nc3ccc4c(c3)OCCO4)C2)n1 (configuration not stated)	0.25	-1.73
C/C=C/Cn1c(Br)nc2c1c(=O)[nH]c(=O)n2C	1.09	0.2
COc1ccc(CCC(=O)NC2CCCc3ccccc32)cc1OC (configuration not stated)	1.34	1.32

Ordered by molar mass (falling): some entries from above.
SMILES	KCNQ2 pot	KCNQ2 pot baseline
COc1ccccc1NC(=O)c1ccc(NS(=O)(=O)c2ccc(F)c(Cl)c2)cc1	2.87	-0.07
COc1ccc(OCC(O)CN(C)C(=O)C(C)Oc2ccccc2)cc1 (configuration not stated)	0.01	1.71
Cc1ccc2oc(C(=O)N(C)Cc3cnccn3)c(C)c2c1	0.04	0.1

Filtered by structure: the entries above containing an aryl thioether with sulfur outside any ring (2)
SMILES	KCNQ2 pot	KCNQ2 pot baseline
COC(=O)c1ccccc1SCC(=O)Nc1ccc(N2CCOCC2)cc1	2.13	0.35
Cc1ccccc1NC(=O)CSc1nnc(C2CC2)n1CC1CCCO1 (configuration not stated)	2.01	1.05

Further results follow:
SMILES	KCNQ2 pot	KCNQ2 pot baseline
OCCC1CN(Cc2ccc(Oc3ncccn3)cc2)CCN1C1CCCCC1 (configuration not stated)	0.83	-0.76
Cc1ccc(/C(O)=C2/C(=O)C(=O)N(CCCn3ccnc3)C2c2ccccn2)cc1 (configuration not stated)	0.02	1.93
O=C(CS(=O)(=O)c1cn(CC(=O)N2CCOCC2)c2ccccc12)Nc1ccccc1	1.09	1.44
COc1ccc(-n2c(C)cc(C(=O)COC(=O)c3cc(OC)c(OC)cc3NC(=O)c3cccs3)c2C)cc1	0.25	0.53
COCCNC(=O)C1(S(=O)(=O)c2ccccc2)CC=CC1	0.09	1
O=C(CCN1C(=O)C2C3CCC(C3)C2C1=O)Nc1ccccc1C(F)(F)F (configuration not stated)	2.84	-0.47
NC(=O)c1ccsc1NC(=O)CSc1nc2ccccc2c(=O)n1CCCO	0.72	-2.48
O=S(=O)(c1ccc(Oc2ccc(S(=O)(=O)N3CCOCC3)cc2)cc1)N1CCOCC1	0.6	0.85
CC(=O)Nc1ccc(CN2CCCCCCC2)cc1	0.01	0.47
Cc1cc(C(F)(F)F)c(C#N)c(SCC(=O)NC(C)(C)C)n1	0.16	1.83
COC(=O)c1sc(-c2ccc(Cl)cc2)cc1NC(=O)CSCC(=O)O	1.57	-1.22
COc1cc(O)c(C(CCN2CCCC2)c2ccc(N(C)C)cc2)c(OC)c1 (configuration not stated)	0.78	0.05
O=C(CSc1nc2[nH]ncc2c(=O)[nH]1)N1CCCC1	0.04	0.42
COC(=O)c1c2c(nc3ccccc13)CCC2	0.42	1.11
O=C(NC1CC1)c1cccc(S(=O)(=O)Nc2ccccc2F)c1	1.07	1.14
CCOC(=O)C1CCCN(S(=O)(=O)c2ccc3c(c2)N(C(C)=O)CCO3)C1 (configuration not stated)	1.92	-0.12
COCC(=O)Nc1nc(-c2ccccc2)ns1	0.53	1.08
CCOC(=O)c1sc(=NC(=O)c2cc(OC)c(OC)c(OC)c2)n(C)c1C	0.04	0.73
C/C(=N\NC(=O)c1nn(C)cc1Cl)c1ccncc1	2.23	-0.74
CC(CN1CCC(O)CC1)c1ccccc1 (configuration not stated)	0.98	-0.13
CCCCCOC(=O)Cn1c(N2CCOCC2)nc2c1c(=O)[nH]c(=O)n2C	0.22	-0.81
O=C(c1cccs1)n1nc(-c2ccco2)nc1SCc1ccccc1	0.09	0
COc1cc(/C=N/N(CCO)C2=NS(=O)(=O)c3ccccc32)cc(OC)c1OC	0.87	2.19
Cc1nc(NC(=O)COC(=O)CCc2nc3ccccc3s2)c(Cl)cc1Cl	0.29	0.85
O=C(Nc1ccc(N2CCN(C(=O)c3ccc(Cl)cc3)CC2)cc1)c1cccs1	0.23	0.61
O=[N+]([O-])c1ccc(S(=O)(=O)N2CCN(Cc3c[nH]c4ccccc34)CC2)cc1	0.28	-1.06
CC(=O)N1CCN(CC(=O)Nc2ccccc2Sc2ccc(Cl)cc2)CC1	0.96	-0.01
Fc1ccc2[nH]c3c(N4CCN(c5ccccc5)CC4)ncnc3c2c1	1.23	-0.64
Cc1ccc(NC(=O)c2ccc(F)cc2)cc1S(=O)(=O)N1CCCCCC1	0.49	-1.85
C=CCNc1nc(-c2ccccn2)nnc1-c1ccccc1	0.74	-0.28

Full records from above:
CC(CN1CCC(O)CC1)c1ccccc1 (configuration not stated) in the list: KCNQ2 pot = 0.98; KCNQ2 pot baseline = -0.13
CCCCCOC(=O)Cn1c(N2CCOCC2)nc2c1c(=O)[nH]c(=O)n2C in the list: KCNQ2 pot = 0.22; KCNQ2 pot baseline = -0.81

In the list so far, 2 have a cyano group:
SMILES	KCNQ2 pot	KCNQ2 pot baseline
Cc1cccn2c(=O)c(/C=C(\C#N)S(=O)(=O)c3ccccc3)c(Oc3ccc(Cl)cc3)nc12	1.67	0.62
Cc1cc(C(F)(F)F)c(C#N)c(SCC(=O)NC(C)(C)C)n1	0.16	1.83

More structures follow.
SMILES	KCNQ2 pot	KCNQ2 pot baseline
CCC1Oc2ccc(C)cc2N(CC(=O)NCCC2=CCCCC2)C1=O (configuration not stated)	2.53	-0.16
COCC(=O)N1CCN(c2nc3ccccc3o2)CC1	0.63	-1.25
C=CCNC(=O)NC(=O)COC(=O)CCCSc1nc2ccccc2[nH]1	2.73	-1.19
NNC(=O)c1cc(-c2ccc(O)cc2)nc2ccc(Br)cc12	0.3	-0.26
CC1CCN(C(=O)Cn2c(=O)oc3cc(S(=O)(=O)N4CCCCC4)ccc32)CC1	1.5	1.55
CN1CCN(S(=O)(=O)c2ccc(N(C)Cc3ccc(OC(F)F)cc3)c([N+](=O)[O-])c2)CC1	0.99	1.1
CN(CC(=O)Nc1ccc(F)cc1)C(=O)CCc1nc2ccccc2c(=O)[nH]1	1.79	-2.52
CC(C)COc1ccc(C(=O)Nc2ccc(N3CCOCC3)cc2N2CCOCC2)cc1	1.52	-0.02
O=C(c1ccco1)N1CCN(C(=O)C2CC(c3ccc(Cl)c(Cl)c3)=NO2)CC1 (configuration not stated)	2.08	-0.62
Cc1cccc(OCCOc2ccccc2C=C(C#N)C#N)c1	0.42	-0.24
CC(=O)Oc1ccccc1C(=O)Nc1ncc([N+](=O)[O-])s1	3.01	1.31
COC(=O)c1c(C(=O)OC)c2ccccn2c1C(=O)c1ccccc1	1.15	-0.8
CCOC(=O)c1c(Nc2ccc(Cl)cc2)sc(/C=C2\C=Nc3ccccc32)c1O	0.74	-0.07
Cc1cc(=O)cc(C)n1-c1ccc(Cl)c(Cl)c1	0.53	0.21
N#CCCN(C(=O)COc1ccc(Br)cc1F)c1ccc(F)cc1	0.1	1.08
CCN(CC)C(=O)c1ccc2c(c1[N+](=O)[O-])C(=O)c1ccccc1C2=O	2.01	1.15
O=C(O)c1ccccc1C(=O)NC1CCN(c2nccc(C(F)(F)F)n2)CC1	0.18	-1.95
O=C(Nc1ccccc1[N+](=O)[O-])c1cc(S(=O)(=O)Nc2ccccn2)ccc1Cl	1.18	-0.48
C=CCn1c(NC)cc(=O)n(C)c1=O	1.7	-1.21
COc1ccc(NC(=O)CSc2nnc(Cc3ccccc3)c(=O)n2N)cc1OC	1.04	-1.78
Cc1ccc2nc3c(c(N)c2c1)CCN3C	0.24	0
COc1ccc(OCC(O)CNC(=O)c2ccccc2)cc1 (configuration not stated)	1.49	0.68
CC(=O)Nc1ccc(Nc2ncnc3c2cnn3-c2ccc(C)cc2C)cc1	0.78	-0.47
COc1nc(-c2ccc(C)cc2)ccc1-c1noc(-c2cccnc2)n1	0.71	0
CC(=O)NS(=O)(=O)c1ccc(NC(=O)NC2CCCCC2)cc1	1.17	0.04
CC1CN(Cc2cc(=O)oc3cc(O)ccc23)CC(C)O1 (configuration not stated)	0.66	-0.14
O=C1c2ccc(-c3ccc4c(c3)C(=O)N(CCO)C4=O)cc2C(=O)N1CCO	2.36	0
O=C(CCS(=O)(=O)c1ccccc1)Nc1ccc(N2CCOCC2)cc1	0.04	0.86
Cc1ccc(NC(=O)CSc2nc(=O)cc(N)n2-c2ccccc2)cc1	0.86	-0.97
Cc1ccc(CN2C(=O)CCC2C(=O)NCc2ccc3c(c2)OCO3)cc1 (configuration not stated)	1.86	-0.02
CCCn1nc(C(=O)NNC(=O)C2CSC3(C)CCC(=O)N23)c2ccccc2c1=O (configuration not stated)	1.45	0.46
O=C(CN1CCCCCC1)N/N=C/c1cccs1	0.01	1.28
CCNc1nc(Oc2ccccc2)nc(OC(C)C(=O)OCC)n1 (configuration not stated)	1.52	0.16
C=CCN1C(=O)C(CC(=O)NCC)SC1=Nc1ccc(S(N)(=O)=O)cc1 (configuration not stated)	0.18	0.05
CC(C)NC(=O)Nc1ccc(Br)cc1Cl	1.49	-1.14
COc1ccc(NC(=O)CN(C)C(=O)c2ccc(S(=O)(=O)Nc3ccccc3F)cc2)cc1	1.35	1.38
COc1cccc2c(=O)n(CC(=O)N3CCN(c4ccccc4)CC3)ccc12	0.92	0.93
COCc1ccc(CN2CCC(n3nccc3NC(=O)C(OC)c3ccccc3)CC2)o1 (configuration not stated)	0.24	-0.57
O=C(O)CCC(=O)Nc1ccccc1N1CCOCC1	0.18	2.47
CN(Cc1ccon1)C(=O)CC1C(=O)NCCN1CC(C)(C)C (configuration not stated)	1.04	0.58
CC1CCC(NC(=O)CCC(=O)N2CC(C)Oc3ccccc32)CC1 (configuration not stated)	0.33	0.43
On1c(-c2ccccc2Cl)nc2ccccc21	0.02	1.8
CCOc1ccccc1NS(=O)(=O)c1ccc2[nH]c(=O)[nH]c2c1	0.21	0.3
Cc1ccc2nc(NC(=O)CSc3nncc(=O)n3N)sc2c1	1.17	-2.87
COc1ccc(OC)c(NC(=O)c2cccc(S(=O)(=O)N3CCN(C(C)=O)CC3)c2)c1	0.55	0.07
COC(=O)Nc1cc(C(F)(F)F)ccc1N1CCN(c2ccccc2)CC1	0.02	-0.02
C/C(=N/OC(=O)c1cccc(Cl)c1)c1nccs1	0.27	1.52
NC(=O)c1cc([N+](=O)[O-])ccc1NCc1cccnc1	1.21	-0.49
COC(=O)N1C(=O)[C@](c2ccc(OC)cc2)(C(C)C)N1C(=O)OC	1.41	0.14
COc1ccc(CCNc2ccc(N3C(=O)CC(C)C3=O)cc2[N+](=O)[O-])cc1OC (configuration not stated)	1.92	-0.24
CCCC(C)NC(=O)CSc1nnc(-c2c[nH]c3ccccc23)o1 (configuration not stated)	1.23	-1.36
Cc1cc(C)c(NC(=O)COC(=O)/C=C/c2cccs2)c(C)c1	0.27	-0.08
CCc1cc(C(=O)OC)c(NC(=O)CN2CCN(C(=O)c3ccco3)CC2)s1	1.64	-0.81
CC1CCC(=NNC(=O)Cc2cccn2C)CC1 (configuration not stated)	0.35	-1.59
Cc1cc(N2CCCC2=O)c(N)cc1N	0.39	-0.15
CCOC(=O)c1sc(NC(=O)C(C)Sc2nnc(N)s2)nc1C (configuration not stated)	0.54	-0.05
Cc1ccc(/C(N)=N/OC(=O)Cc2cccc3ccccc23)cc1	0.23	0.18
Cc1cc(C)nc(Nc2ccc(O)cc2)n1	0.02	-0.09
Cc1ccc(NC(=O)C(=O)N2CCCC2)cc1Cl	1.5	1.16
COC(=O)c1ccc(C2/C(=C(\O)c3ccc(OC)c(C)c3)C(=O)C(=O)N2c2cc(C)on2)cc1 (configuration not stated)	0.29	-0.39

Screening results from PubChem.
